Screening data deposited in PubChem BioAssay by ICCB-Longwood Screening Facility, Harvard Medical School.
AID504770: E. coli YBA685 growth inhibition, screen for V. cholerae RctB inhibitors. E. coli YBA685 rctB-dependent plasmid, OD600 growth, 3 h; active compounds read low. z-score (concentration not given with the values). 0.27% of 130,000 active. AID 504770;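 active = z-score under -2 on both plates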;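 note: wells of about 30 µL received 100 nL stock; score is relative to mean and SD of the test wells; the first replicate is given; strong numbers were not always called active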
Ba CapD inh: inhibitors of Bacillus anthracis CapD enzyme | AID 492967 | 0.23% of 140,000 active | z-score (test concentration not listed) | purified CapD enzyme, fluorescence intensity read-out; active compounds read low; some hits fall short of the stated cut;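 active = z-score under -4 in either of two replicates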;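 note: stock transfer was 100 nL into about 40 µL; score is relative to mean and spread of the plate; one replicate is shown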
Starred values were filed as active, the others as inactive; i = inactive; nt = no result given; & = joins results of further samples. These rows are one share of the data; the hit share may differ from the screen's.

Sample of the layout:
compound	AID504770	Ba CapD inh
COc1ccc(NC2CC(=O)N(c3ccccc3C(F)(F)F)C2=O)cc1 (centres undefined)	2	0.18
Cc1cccc(CCNC(=O)c2ccc3c(=O)n(Cc4ccc5c(c4)OCO5)c(=O)[nH]c3c2)c1	0.05	1.1
O=C1C(Cc2ccc(F)cc2)S/C(=N/N=C/c2cccnc2)N1Cc1ccco1 (centres undefined)	-0.5	nt

This part in full, from the start:
compound	AID504770	Ba CapD inh
COc1ccc(NC2CC(=O)N(c3ccccc3C(F)(F)F)C2=O)cc1 (centres undefined)	2	0.18
Cc1cccc(CCNC(=O)c2ccc3c(=O)n(Cc4ccc5c(c4)OCO5)c(=O)[nH]c3c2)c1	0.05	1.1
O=C1C(Cc2ccc(F)cc2)S/C(=N/N=C/c2cccnc2)N1Cc1ccco1 (centres undefined)	-0.5	nt
CCc1c(C)sc(NC(=O)c2ccc(Cn3nc(C)c(Cl)c3C)o2)c1C(N)=O	1.85	-0.2
COCC(=O)N(C)c1nnc(-c2ccc(OC)cc2)s1	-0.75	nt
COc1ccc(CCN2C(=O)CSC2c2ccc(Cl)c(Cl)c2)cc1OC (centres undefined)	nt	0.09
Cn1ccnc1SCC(=O)c1ccc(O)cc1	-0.3	i
c1nncn1/N=C1/CCCc2nonc21	-1.2	0.23
Cc1ccc(OCc2nc3c4c(-c5ccccc5)c(-c5ccccc5)oc4ncn3n2)cc1	nt	-0.31
CCOc1cc(/C=C2\N=C(c3ccc(F)cc3)OC2=O)cc(Br)c1OC(C)=O	nt	1.1
Cn1cccc1C(C#N)c1ccccc1C#N (centres undefined)	-0.2	-0.63
Cc1ccc(CN(C)C(=O)c2cccc(N(C)C)c2)o1	0.05	nt
C1=C(c2ccccc2)Nc2nnnn2C1	1.05	1.13
CCOC(=O)C1=C(C)N=c2s/c(=C/c3ccc(OC)c(OC)c3)c(=O)n2C1c1cccc([N+](=O)[O-])c1 (centres undefined)	nt	-0.115
CCOC(=O)c1cc2cnccc2nc1-c1cccnc1	nt	0.04
CCCc1nn(-c2ccc(=O)[nH]n2)c(CCC)c1CC	1.85	0.215
CC1(C)CC2CC(C)(CN2c2nc(N)c3c(N)nc4c(c3c2C#N)CC(=O)N4C2CCCC2)C1 (centres undefined)	-2.5	nt
COc1cccc(NC(=O)Nc2cc(C(=O)O)ccc2N2CC3CC(C2)c2cccc(=O)n2C3)c1 (centres undefined)	-0.8	-1.29
CCc1c(C)nc2ncnn2c1N1CCC(C(=O)Nc2ccccc2)CC1	-0.35	nt
O=C(Cn1c(=O)c2cccn2c2ccccc21)NCCCN1CCCC1	0.4	-1.02
C=CCN(c1ccc(C(N)=O)cc1)S(C)(=O)=O	0.35	0.025
COc1cccc(/C=N/NC(=O)c2ccc([N+](=O)[O-])o2)c1[N+](=O)[O-]	nt	-0.045
O=C(c1ccccc1)c1ccc[nH]1	-0.55&-0.85	-1.07&-1.41
CCC(CC)NC(=O)CCc1c(C)nc2nc(N)nn2c1C	-0.4	nt
O=C(CSc1nnc(-c2ccco2)n1Cc1ccccc1)NC1CCCc2ccccc21 (centres undefined)	-0.05	nt
CCOc1ccccc1NC(=O)CCN1CCN(S(=O)(=O)c2ccc(Br)cc2)CC1	0.5	0.07
Cc1onc(-c2c(F)cccc2Cl)c1C(=O)N=C(N)N1CCOCC1	-1	-0.375
O=C(Cn1nc2n(c1=O)-c1ccccc1SC2)NC(=O)Nc1ccccc1	0.1	-0.115
O=C(c1nn2c(c1Cl)NC(c1cccs1)CC2C(F)(F)F)N1CCOCC1 (centres undefined)	0	nt
O=C(c1ccccc1)n1nc(-c2ccco2)nc1SCc1ccccc1	0.3	3.57
COc1cc(OC)nc(C(=O)O)n1	nt	-0.11
O=C(O)CC(NS(=O)(=O)c1cccs1)c1ccccc1 (centres undefined)	1	nt
COCCNC(=O)c1ccc(Cn2c(SCC(=O)n3nc(N)cc3C)nc3ccc(Br)cc3c2=O)cc1	nt	-0.675
CCOC(=O)c1[nH]c2ccc(F)cc2c1NC(=O)CN1CCCCC1	nt	6.17
Cc1ccc(C(=O)c2ccccc2C(=O)O)c(O)c1	2.3	-0.885
OCC1c2ccccc2-c2ccccc21	-1.6	-0.25
CNC(=O)CSc1nnc(NC2CCCCC2)s1	0.05	nt
O=C(/N=C1/NC(=O)C(F)(C(F)(F)F)S1)NC1CCCCC1 (centres undefined)	0	-0.855
Cc1cc(C)c2[nH]c(=O)c(C(c3nnnn3CC3CCCO3)N3CCN(c4ccccc4F)CC3)cc2c1 (centres undefined)	0.25	nt
O=C(c1cc(-c2ccc(Cl)cc2)on1)N1CCCC1	-0.55	0.11
NNC(=O)c1cnn(-c2ccccc2)c1C(F)(F)F	nt	0.08
Cc1nnc(SCC(=O)Nc2cc(NC(=O)CSc3nnc(C)s3)cc(C(=O)O)c2)s1	nt	-0.155
CN(C)S(=O)(=O)c1ccc(=S)[nH]c1	-0.75	nt
CCOc1ccc(NC(=O)CN2CCCc3ccccc32)cc1	-0.25	0.265
CCOc1ccc(N2C(=O)/C(=C\c3cc(OC)c(OC)c(OC)c3)S(=O)(=O)C2c2cccc([N+](=O)[O-])c2)cc1 (centres undefined)	nt	-0.8
C=CCN1C(=O)S/C(=C/c2ccc(N3CCOCC3)cc2)C1=O	1.3	-1.48
CCN=c1scc(-c2ccco2)n1/N=C/c1cccc(C(F)(F)F)c1	0.8	nt
CCN(C(=O)CCCN1C(=O)/C(=C\c2cccs2)SC1=S)C1CCS(=O)(=O)C1 (centres undefined)	-0.4	nt
NS(=O)(=O)c1ccc2c(c1)OCCO2	-0.7	0.45
Cc1onc(-c2ccccc2)c1CNS(=O)(=O)c1cccc(Cl)c1	-0.35	0.345
COc1ccc(NC(=O)C2CC(=O)N(Cc3ccc4c(c3)OCO4)C(=Nc3ccccc3)S2)cc1 (centres undefined)	nt	-0.265
CC(C)(C)OC(=O)C(Cc1c[nH]c2ccccc12)NC(=O)OCc1cccnc1 (centres undefined)	nt	-1.14
CCn1c2ccccc2c2nc(C)sc21	-0.55	0.175
COc1ccc(C(=O)NCCS(=O)(=O)Cc2ccc(F)cc2)cc1	0.05	-1.19
C=CCc1cccc2cc(C(=O)Nc3ccc(S(=O)(=O)Nc4nnc(CC)s4)cc3)c(=O)oc12	nt	-0.145
O=S1(=O)CCN2C(=N1)OC(c1ccccc1)=C2c1ccccc1	0.55	nt
O=C(c1ccccc1F)N(Cc1ccco1)c1ccc(O)cc1	0.75	nt
COc1ccc(NC(=S)N(CC2CC=CCC2)CC2CCCO2)cc1 (centres undefined)	1.1	0.48
O=C(Nc1nc(-c2ccccc2)cs1)Oc1ccccc1	2.9	-0.325
COC(=O)c1ccc2c(c1)S(=O)(=O)NC(=NCc1ccco1)S2	-0.6	nt

Next section.
compound	AID504770	Ba CapD inh
Cn1cnnc1SCC(=O)Nc1sc2c(c1C#N)CCC2	-0.3	0.475
CC1=CC(C)(C)N(C(=O)CSc2nncn2C)c2ccccc21	nt	-0.11
O=C(OCc1ccccc1)N1CCN(C(=O)OCc2c(F)cccc2F)CC1	nt	-0.505
CCCOc1ccc(Br)cc1/C=C1\NC(=S)NC1=O	0.85	63.9
NC(=O)c1oc2ccccc2c1NC(=O)CSc1ccccc1	-0.9	1.71
CN1C(=O)S/C(=C\c2ccc(Oc3ccc([N+](=O)[O-])cc3[N+](=O)[O-])cc2)C1=O	nt	0.035
CC1CC(C)CN(S(=O)(=O)c2ccc3[nH]cc(C(=O)NC4CCCCC4)c(=O)c3c2)C1 (centres undefined)	-0.15	-0.61
CCOc1ccc(CCNC(=O)c2nc(-c3cccnc3)no2)cc1	0.75	0.085
Cc1nn(CCC(=O)N2CCc3ccccc32)c(C)c1S(=O)(=O)N1CCCC1	-0.05	0.96
Cn1c(SCC(=O)c2ccccc2)nc2ccccc2c1=O	-0.85	-0.495
C1=CC2c3c(ccc4ccccc34)NC(c3cccc4ccccc34)C2C1 (centres undefined)	nt	2.72
CC(CCOC(=O)NCCc1ccccc1Cl)c1ccccc1 (centres undefined)	nt	-0.825
COC(=O)CSc1ccccc1C(=O)OC	-0.7	10.9
Cc1cc2c(=O)n(CC(=O)O)cnc2s1	-1	-0.07
O=C(O)C1CCCCC1C(=O)N1CCN(C(c2ccccc2)c2ccccc2)CC1 (centres undefined)	-0.7	-0.335
C=C(C)Cn1c(C(O)c2ccccc2)nc2ccccc21 (centres undefined)	-0.15	0.025
CSc1ccc(Oc2c([N+](=O)[O-])cc(C(F)(F)F)cc2[N+](=O)[O-])cc1	nt	-0.3
Cc1cc(NN)nc2ccc(Cl)cc12	-0.45	nt
CCCN(CCC)S(=O)(=O)c1ccc(C(N)=O)cc1	0.2	0.045
CCOC(=O)c1[nH]c2c(c1-c1ccccc1)C(=O)CC(c1ccc(Cl)cc1)C2 (centres undefined)	1.35	0.19
CCOC(=O)c1cc(=O)n(C)c2c1c(=O)oc1ccccc12	-0.75	83.5
CCOC(=O)/C(=C(/C)Nc1ccc(F)cc1)C1CC(=O)N(c2ccc(F)cc2)C1=O (centres undefined)	-0.3	0.49
Cc1ccccc1N=Cc1ccco1	0.4	-0.33
FC(F)(F)c1ccc(C2C3C(=NN2c2cc(Cl)ccc2Cl)C2CCN3CC2)cc1 (centres undefined)	-0.95	-0.67

Single values from the list.
Result of C=C(C)Cn1c(C(O)c2ccccc2)nc2ccccc21 (centres undefined) in Ba CapD inh: 0.025
Result of FC(F)(F)c1ccc(C2C3C(=NN2c2cc(Cl)ccc2Cl)C2CCN3CC2)cc1 (centres undefined) in Ba CapD inh: -0.67
Result of CCOC(=O)c1cc(=O)n(C)c2c1c(=O)oc1ccccc12 in AID504770: -0.75
Result of CCOC(=O)/C(=C(/C)Nc1ccc(F)cc1)C1CC(=O)N(c2ccc(F)cc2)C1=O (centres undefined) in AID504770: -0.3
Result of CCCN(CCC)S(=O)(=O)c1ccc(C(N)=O)cc1 in Ba CapD inh: 0.045
Result of Cc1cc2c(=O)n(CC(=O)O)cnc2s1 in Ba CapD inh: -0.07
Result of CCOC(=O)c1[nH]c2c(c1-c1ccccc1)C(=O)CC(c1ccc(Cl)cc1)C2 (centres undefined) in AID504770: 1.35

(cont.)
compound	AID504770	Ba CapD inh
Nc1cccc(-c2cn3ccccc3n2)c1	-0.3	nt
COCCCNC(=O)c1ccc2c(c1)[nH]c(=S)n1c3ccccc3nc21	nt	-0.21
CCCCc1c(C)nc(-c2ccc(Cl)cc2)[nH]c1=O	-0.05	79.2
C=CCOC(=O)C1=C(C)NC(SCC(=O)c2ccc(OC)cc2)=C(C#N)C1c1cccs1 (centres undefined)	nt	0.05
COc1ccc(-c2cc(CCCC(=O)NCCc3ccc(OC)cc3OC)no2)cc1	0.05	-1.42
CCc1nc2sc3c(NCCN4CCOCC4)ncnc3c2c2c1CCCC2	-0.8	1.99
COC(=O)C(C)Oc1ccc2cc(-c3nc4ccccc4s3)c(=O)oc2c1 (centres undefined)	0.05	0.895
Cc1ccccc1OCCn1cnc2ccccc21	-0.65	-0.03
Cn1c(=O)c(C(N)=S)cn(-c2ccccc2)c1=O	0.5	-1.8
Cc1cc(Nc2ccc(O)cc2)c2cc(Cl)ccc2n1	-0.6	-1.01
COc1ccc(CCN(C)Cn2ncn(C)c2=S)cc1OC	1.5	nt
CNC(=O)c1oc2ccc3c(c2c1C)C(=O)CC1(CCCCC1)O3	0.3	-0.4
Clc1ccc(C2Nc3cccc4cccc(c34)N2)cc1Cl	nt	-0.205
CCOC(=O)c1cnn(-c2c(Cl)cc(Cl)cc2Cl)c1COC	nt	-0.24
CC(C)(C)C(=O)CSc1nc2ccccc2c(=O)[nH]1	-0.4	-0.335
Cc1ccc(-c2noc(C3CCCN(C(=O)c4ccccc4)C3)n2)o1 (centres undefined)	-0.45	nt
COc1ccc(C(c2ccccc2)N2CCNCC2)cc1 (centres undefined)	-0.6	nt
COc1cc(-n2c(SC)nc3ccccc3c2=O)c(Cl)cc1Cl	nt	-0.45
Cc1ccc(S(=O)(=O)NC2=NCN(CC3CCCO3)CN2)cc1 (centres undefined)	2.6	nt
Cc1nc(N2CCOCC2)c2c(C)c(C(=O)Nc3ccc(F)cc3Cl)sc2n1	nt	7.93
CC(C(=O)N(C)C)N(c1cccc(Cl)c1)S(C)(=O)=O (centres undefined)	0.6	-0.365
c1ccc(CCn2c(C3CCCO3)nc3ccccc32)cc1 (centres undefined)	0.55	-0.09
CCOc1ccccc1C(=O)N(Cc1cc2ccccc2[nH]c1=O)C(C)C	-0.3	21.5
COc1ccc(C(CC(=O)O)NS(=O)(=O)c2cccc3nsnc23)cc1OC (centres undefined)	nt	-0.475

For reference, some entries already given:
compound	AID504770	Ba CapD inh
Clc1ccc(C2Nc3cccc4cccc(c34)N2)cc1Cl	nt	-0.205
CCOC(=O)c1cnn(-c2c(Cl)cc(Cl)cc2Cl)c1COC	nt	-0.24

The list goes on.
compound	AID504770	Ba CapD inh
CCc1ccc(NC2CC(=O)NC2=O)cc1 (centres undefined)	-0.5	0.01
N#Cc1nccc2ccccc12	nt	91.3
CN1C(=O)Cc2c1nc(N)c1c(N)nc(N3CCN(C(=O)c4ccco4)CC3)c(C#N)c21	-0.1	nt
COc1cccc2c1OC(C(C)C)N1N=C(c3cc(C)ccc3O)CC21 (centres undefined)	-0.6	-0.18
CCOC(=O)c1ccc(NCC(=O)N2CCc3ccccc32)cc1	0.3	0.45
O=C(O)CC(C(=O)O)c1ccc(Cl)cc1Cl (centres undefined)	-0.45	-0.265
CC(C)C(NC(=O)c1ccc(F)cc1)C(C)C	0.7	0.135
O=C(NCc1ccccc1)c1ccc2c(c1)sc1nc(-c3ccccc3)cn12	0.45	0.515
CCOC(=O)c1c(NC(=O)c2cc(-c3cccc(OC)c3)on2)sc(C)c1C	-0.9	-0.48
O=C1c2cccc3cccc(c23)C(=O)N1CC1CCN(CC(O)COc2ccc3c(c2)OCO3)CC1 (centres undefined)	nt	11.2
